D2 agonist: human D2 receptor agonism in beta-arrestin assay. DiscoveRx PathHunter D2 beta-arrestin, luminescence, 90 min; 100% = 57 uM dopamine signal. activation, % (concentration not given with the values). AID 624465. 0.084% of 360,000 active; in the data active = activation above about 40%; inconclusive = about 15% to 40%; inactive = below about 15%; also: compound concentration not given in the record; the text of the record calls up to 30% inactive
Target sequence (P14416 whole entry, looked up): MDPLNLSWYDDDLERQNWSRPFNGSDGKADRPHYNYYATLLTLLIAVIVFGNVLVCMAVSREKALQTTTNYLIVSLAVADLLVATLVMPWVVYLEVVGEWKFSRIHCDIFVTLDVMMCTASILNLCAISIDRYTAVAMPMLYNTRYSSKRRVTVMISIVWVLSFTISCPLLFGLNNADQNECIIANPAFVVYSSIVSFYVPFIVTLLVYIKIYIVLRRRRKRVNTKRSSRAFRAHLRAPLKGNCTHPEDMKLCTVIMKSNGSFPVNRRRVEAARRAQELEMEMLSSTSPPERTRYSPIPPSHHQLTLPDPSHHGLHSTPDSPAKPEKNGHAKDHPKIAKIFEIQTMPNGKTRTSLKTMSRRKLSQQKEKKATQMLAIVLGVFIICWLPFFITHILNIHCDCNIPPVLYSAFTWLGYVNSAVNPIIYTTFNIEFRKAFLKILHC
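DiscoveRx PathHunter D2 beta-arrestin cells (2,100/well) attached overnight, then compound-stimulated 90 min at 37 C in HBSS/10 mM HEPES/0.1% Tween-20 buffer; beta-galactosidase complementation read by luminescence after 1 h at ambient temperature. Dopamine 57 uM final (EC100) as control.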
CtBP-E1A blk: CtBP/E1A binding inhibition | AlphaScreen GST-E1A/His-CtBP binding, 1536-well; active compounds read low; control for the full effect not named in the record | activity change, % (no concentration beside the values) | 0.49% of 340,000 active | AID 651724; in the data active means activity change below about -65%; inconclusive means about -30% to -65%; inactive means above about -30%; also: % is scaled to controls: 0 for no effect and ±100 for the full control effect
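Homogeneous bead-based format: GST-tagged E1A captured on glutathione donor beads, His-tagged CtBP on nickel acceptor beads; compounds precede bead addition by 2 h at 37 °C.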
TRPML1 blocker: human mucolipin-1 channel inhibition | AID 624415 | TRPML1-inducible cells, Ca2+ dye fluorescence, FDSS; active compounds read low; inhibition of EC80 agonist-evoked calcium signal | Q9GZU1 | 0.02% of 390,000 active | activity change, negative = inhibition, % (test concentration not listed); in the data active means activity change below about -50%; inconclusive means about -30% to -50%; inactive means above about -30%;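 also: stimulus is agonist 54-4 at its EC80 concentration; % is scaled to controls: 0 for no effect and ±100 for the full control effect; compound concentration not given in the record; the text of the record puts the active cut at -80%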
Target sequence (Q9GZU1 whole entry, looked up): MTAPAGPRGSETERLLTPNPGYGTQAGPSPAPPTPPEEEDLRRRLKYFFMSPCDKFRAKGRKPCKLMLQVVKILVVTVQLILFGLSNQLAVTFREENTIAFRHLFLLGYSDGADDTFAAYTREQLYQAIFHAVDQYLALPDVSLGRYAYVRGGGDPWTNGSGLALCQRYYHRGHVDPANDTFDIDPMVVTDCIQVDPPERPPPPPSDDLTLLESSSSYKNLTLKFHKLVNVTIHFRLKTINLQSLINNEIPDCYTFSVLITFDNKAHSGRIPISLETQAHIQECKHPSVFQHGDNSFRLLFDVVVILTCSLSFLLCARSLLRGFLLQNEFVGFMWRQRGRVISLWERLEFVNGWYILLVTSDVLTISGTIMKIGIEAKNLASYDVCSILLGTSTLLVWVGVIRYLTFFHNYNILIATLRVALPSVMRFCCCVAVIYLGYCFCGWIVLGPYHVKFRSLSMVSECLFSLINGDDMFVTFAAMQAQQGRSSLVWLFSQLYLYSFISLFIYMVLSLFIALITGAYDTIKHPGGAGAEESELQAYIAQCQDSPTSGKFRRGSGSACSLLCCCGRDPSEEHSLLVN
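Tet-induced TRPML1-DL cells loaded with Ca8 no-wash calcium dye were read kinetically on FDSS. Compound addition was followed by EC80 agonist 54-4 (4 uM final); inhibition was read over 110 s.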
Six1-Eya2 inh: Six1/Eya2 interaction inhibition; AlphaScreen GST-Six1/His-Eya2 binding, biochemical; active compounds read low; control for the full effect not named in the record; activity change, % (test concentration not listed); 0.56% of 360,000 active; AID 651725; in the data active = activity change below about -65%; inconclusive = about -30% to -65%; inactive = above about -30%; also: % is scaled to controls: 0 for no effect and ±100 for the full control effect
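Six1/Eya2 binding was read as AlphaScreen signal after compounds were pinned into GST-Six1 plus His-tagged Eya2 (5X stock 250/500 nM) in pH 8.0 Tris/NaCl/TCEP buffer, beads added, then incubated 1 h, 37 C, dark.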
PINK1 modulator: changes PINK1 expression; AID 624263; PINK1 immunofluorescence, high-content cytometry, 24 h; Potency, µM (series often up to 76.6 µM), without a hit: at the highest dose activation (PINK1 increase), most hits filed as activators; 0.2% of 410,000 active; active = well fitted activation curve with a large enough effect; inconclusive = small, poorly fitted or top-dose-only effect; inactive = flat fitted curve, though single readings scatter; cell line not stated here;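 also: potency is read from the fitted curve at half-maximal effect; % of control where 0% means no effect; nearly all actives have a fitted effect of over 65% in size; a mitochondrial uncoupler was the plate control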
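Stable cell line, 250 cells/well, 12 h attachment; compounds pinned at 5 concentrations, 24 h; CCCP control. Fixed with nuclear dye, primary antibodies 12 h at 10 degrees C, secondary plus cell stain; laser-scanning cytometer read.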
TRPML1 agonist: agonists of human TRPML1 channel | 0.12% of 410,000 active | TRPML1-expressing cells, Ca2+ dye fluorescence, FDSS; host cell line not named in the record; reference of the full effect not given here | Q9GZU1 | activation, % (no concentration beside the values); in the data active = activation above about 50%; inconclusive = about 30% to 50%; inactive = below about 30%; also: 0% is about no effect; the text of the record puts the active cut at 80%
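In this qHTS format, compounds were pin-transferred onto Ca8-dye-loaded TRPML1-DL cells induced with Tet overnight, and intracellular Ca2+ fluorescence was recorded kinetically for 110 s after a 10 s baseline. A subsequent 4uM final 54-4 (EC80) addition followed by a second 110 s read served as the antagonist phase.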
Active calls of the source: *; ? = inconclusive; . = not tested or not shown; & = joins results of further samples; ! = a repeat was not active; [ ] = another dose, or the depositor's remark.

SMILES	D2 agonist	CtBP-E1A blk	TRPML1 blocker	Six1-Eya2 inh	PINK1 modulator	TRPML1 agonist
CCOC(=O)C1CCN(C(=O)Nc2ccc3nc(-c4ccco4)c(-c4ccco4)nc3c2)CC1	3.8	-26	7	?	0.9%	3.3
Nc1ccc2c(c1)nc(Cc1ccccc1)n2CCO	5.1	.	-17	0	2.1%	0.4
NC(=O)c1ccc[n+](CC(=O)c2cccc([N+](=O)[O-])c2)c1	-6.0	.	15	-1	2.7%	-0.1
COc1ccccc1NCC(=O)NNCC(=O)Nc1ccc(F)c(Cl)c1	-4.4	15	3	12	-0.3%	0.7
CC(C)NC(=O)c1ccc2c(c1)N(CC(=O)N1CCCCC1)C(=O)C(C)(C)O2	-1.5	-13	-4	-15	7.1%	-0.9
CCOC(=O)CNC(=O)CSc1nnc(C)c(=O)[nH]1	-0.9	-2	-1	-7	1.4%	-0.6
Cc1ccn(C(C)CC(=O)Nc2ccc(-c3ccno3)cc2)n1 (centres undefined)	-4.0	-4	10	-19	0.2%	0.9
CN(C)N1C(=O)C2C3C=CC(O3)C2C1=O (centres undefined)	-1.7	4	0	2	-2.7%	0.0
Cc1ccc(C(=O)CN2C(=O)c3ccccc3S2(=O)=O)cc1	5.6	10	5	6	4.8%	0.5
COc1cccc(CNC(=O)CN2C(=O)CSc3ccc(S(=O)(=O)N(C)C)cc32)c1	.	.	-4	.	0.6%	-1.0
COc1ccc(-c2nc3c(C#N)c[nH]n3c2NC2CCCCC2)c(OC)c1	.	.	75	.	3.6%	0.9
Cc1ccsc1C(=O)NNC(=O)C1C2C=CC(C2)C1C(=O)O (centres undefined)	-1.5	-2	-16	0	1.3%	-0.6
Cc1[nH]c(=O)nc(SCc2ccc(Cl)c(Cl)c2)c1C#N	-2.3	-14	28	-2	1.0%	0.6
COc1ccc(OCC(=O)NCCCCCCNC(=O)COc2ccc(OC)cc2)cc1	-7.2	-8	-16	-5	-0.7%	2.1
O=[N+]([O-])c1ccc(Oc2ccc(OCc3ccccc3)cc2)nc1	3.3	-22	91	-10	0.3%	2.7
COc1cc2c[n+](C)c3c4ccccc4ccc3c2cc1OC	-2.1	?	24	-27	-2.0%	0.8
O=C(CCCCCn1nnc2ccccc2c1=O)Nc1ccccc1F	-3.7	0	20	-2	1.8%	1.0
CC(C(=O)NC(=O)NCc1ccccc1)N1C(=O)c2ccccc2C1=O (centres undefined)	3.4	-9	25	7	0.1%	1.9
O=C(CCc1nc2ccccc2c(=O)[nH]1)Nc1nnc(SCc2ccc(Cl)cc2)s1	-3.7	-1	-7	3	16%	0.7
COc1cccc(OC)c1C(=O)NC(=S)Nc1cc(-c2nc3ccccc3[nH]2)ccc1Cl	-0.3	-8	-20	-13	-0.1%	0.2
Cc1ccc(S(=O)(=O)N(CC(=O)NCc2ccncc2)Cc2ccc(F)cc2)cc1	-4.8	2	-6	5	1.6%	-0.1
Cc1cc(C)c(NC(=O)c2sc3nc(C)cc(C)c3c2N)c(C)c1	.	.	10	.	1.7%	2.3
Cc1c(Cl)c([N+](=O)[O-])nn1CC(=O)NC(C)c1ccccc1 (centres undefined)	-5.4	.	-14	-1	-0.5%	-0.3
CC(C)C(N)c1csc(Nc2cc(Oc3ccccc3)ncn2)n1 (centres undefined)	3.9	?	.	-27	13%	1.4
O=[N+]([O-])c1ccc(CSc2nnc(-c3cccnc3)o2)cc1	-3.3	.	2	-3	-0.4%	-0.8
COc1ccc(COC(=O)NC2CCN(S(=O)(=O)c3ccc(OC)cc3)CC2)cc1	-0.1	-2	-2	3	-1.8%	1.2
COc1cc2c(cc1OC)C(c1ccc(Br)cc1)CC(=O)N2 (centres undefined)	-4.7	-3	-3	-12	4.1%	0.6
O=C(CCC(=O)N1CCSc2ccccc21)NC1CCCCC1	-0.8	3	3	3	-0.2%	-0.1
COCc1[nH]nc2c1C(c1ccc(F)cc1F)C(C#N)=C(N)O2 (centres undefined)	-3.9	8	13	2	2.8%	-0.8
Cc1nc2c(c(C)nn2C(C)(C)C)c(C)c1CCC(=O)Nc1ccc(Br)cc1Br	.	.	-6	.	2.9%	-1.3
CN1C(=O)C(N=Nc2ccc([N+](=O)[O-])cc2)SC1=S (centres undefined)	3.2	-24	3	?	45µM*	5.7
O=C(NCc1cccs1)c1cccc(S(=O)(=O)N2CCCCC2)c1	-1.2	-1	25	-2	-2.4%	0.1
CC(NS(=O)(=O)c1ccc(Br)s1)c1ccccc1 (centres undefined)	-2.0	.	-14	10	3.4%	2.0
CCOc1ccc(S(=O)(=O)NCCC(=O)OCC(=O)NC(=O)c2cccn2C)cc1	-1.8	-1	43	-12	0.2%	-0.5
COc1cccc(CNc2nc3cc(-c4cccc(OC)c4)sc3c(=O)n2C)c1	-5.5	6	.	0	12%	-0.3
CCOc1ccc(NC(=O)CCCN2C(=O)C(c3ccccc3)Oc3cccnc32)cc1 (centres undefined)	-0.3	3	-2&15	1	1.6%&-0.3%	-0.4&2.4
CC(=O)c1ccccc1NCC(=O)Nc1ccc(C)cc1	-3.2	0	13	-5	-0.6%	-1.4
CCOC(=O)C(C(=O)NCc1ccc(C)cc1)c1ncc(C(F)(F)F)cc1Cl (centres undefined)	-5.0	3	2	12	3.3%	-0.5
O=C(Cn1nnc2ccccc21)Nc1ccc([N+](=O)[O-])cc1	-4.2	3	-12	5	2.6%	0.0
COc1ccc(OCC(=O)NCCNC(=O)c2cccnc2)cc1	-3.9	4	-6	7	-1.6%	0.7
O=S(=O)(c1ccc(-c2csc(Nc3ccc(Br)cc3)n2)cc1)N1CCCC1	2.7	2	-12	-8	6.7%	0.3
CCCCOc1ccc(NC(=O)C(=O)NCCC2=CCCCC2)cc1	-0.5	3	2	8	1.7%	0.2
CC(Sc1nc(N)cc(=O)[nH]1)C(=O)Nc1nc2c(s1)CCCC2 (centres undefined)	-2.9	-3	7	-4	0.3%	-0.2
COc1cccc(NC(=O)c2ccccc2OCc2c(C)noc2C)c1	-4.3	10	15	-1	3.0%	0.0
Cc1ccc2cc(C)c(SCC(=O)NCc3ccco3)nc2c1	0.0	.	2	-2	3.3%	1.8
CCc1ccc(NC(=O)CSc2nc(CSc3ccc(C)cc3)cc(=O)[nH]2)cc1	0.9	0	43	4	-0.9%	1.4
COC(=O)[C@]12CCCCC=C1N(Cc1ccc(Cl)cc1Cl)C(=O)[C@H](CC(=O)N1CCCCC1)C2	.	-10	.	-11	19%	-0.4
O=C1Cc2cc(S(=O)(=O)N3CCCCC3)ccc2N1	-6.0	2	-1	-4	0.9%	-0.2

Full records, looked up by structure:
CCc1ccc(NC(=O)CSc2nc(CSc3ccc(C)cc3)cc(=O)[nH]2)cc1 is listed with D2 agonist = 0.9; CtBP-E1A blk = 0; TRPML1 blocker = 43; Six1-Eya2 inh = 4; PINK1 modulator = -0.9%; TRPML1 agonist = 1.4
O=S(=O)(c1ccc(-c2csc(Nc3ccc(Br)cc3)n2)cc1)N1CCCC1 is listed with D2 agonist = 2.7; CtBP-E1A blk = 2; TRPML1 blocker = -12; Six1-Eya2 inh = -8; PINK1 modulator = 6.7%; TRPML1 agonist = 0.3

(next part)
SMILES	D2 agonist	CtBP-E1A blk	TRPML1 blocker	Six1-Eya2 inh	PINK1 modulator	TRPML1 agonist
COc1cccc(-c2c(-c3cc(OC)cc(OC)c3)n(C)c3ccc(-c4cccc5[nH]ccc45)cc23)c1	-2.3	-30	-8	-4	-0.9%	0.6
COCCN(C(=O)COC(=O)c1ccc(C)o1)c1c(N)n(Cc2ccccc2)c(=O)[nH]c1=O	-3.8	18	5	-2	1.3%	-0.4
O=C(Nc1cccc(C(F)(F)F)c1)c1ccc(N2CCNCC2)c([N+](=O)[O-])c1	-0.5	11	-8	-2	-2.1%	1.5
Cc1cccc(C)c1N(CC(O)Cn1c2ccccc2c2ccccc21)S(C)(=O)=O (centres undefined)	2.8	0	6	-2	3.7%[38.3 µM]	-0.7
CCCCOc1ccc(C(=O)NCC(=O)NNC(=O)C2COc3ccccc3O2)cc1 (centres undefined)	1.9	1	-4	5	1.0%	-0.7
CN(C)CCOC(c1ccc(Cl)cc1)c1ccccn1 (centres undefined)	98*!	24&9	20&0	17&-2	2.0%&1.2%	-0.6&-0.3
COc1ccc(N(CC(=O)Nc2ccc(C)c(C)c2)S(=O)(=O)c2c(C)n[nH]c2C)cc1	-0.5	3	6	4	-1.5%	0.9
Cc1ccc(-c2nc(CS(=O)CC(=O)N3CCN(c4ncccn4)CC3)c(C)o2)cc1 (centres undefined)	-4.5	-4	53	6	0.3%	0.6
COc1cccc(N2CC(O)Cn3c2nc2c3c(=O)n(CCCc3ccccc3)c(=O)n2C)c1 (centres undefined)	-1.7	-9	3	-9	2.3%	1.3
CC1(C)OC(=O)C2=C(C[C@@H](C3CCCCC3)O[C@H]2c2ccc(Cl)cc2)O1	-5.0	10	24	6	9.3%	1.2
Cc1ccc(-c2ccc(C(=O)NCc3ccccc3)o2)c2ccccc12	0.1	0	6	-7	0.3%	0.6
CC1=CC(C)(C)NC(=S)N1c1ccc([N+](=O)[O-])cc1	-1.0	0	9	-6	2.0%	-1.0
NC(=O)c1cc([N+](=O)[O-])c(Cl)cc1NCc1ccncc1	0.2	-6	1	-8	2.4%	-0.6
CCN(CC)C(=O)c1cccc(NC(=O)C2CCN(C(=O)c3cccs3)CC2)c1	-3.1	6	24	24	0.0%	0.6
O=C(O)Cn1c(=O)c2cccn2c2ccccc21	-1.9	.	16	8	-0.8%	1.0
CCOC(=O)c1ccc(NS(=O)(=O)c2cc3c4c(c2)CCN4C(=O)CC3)cc1	0.0	7	-5	-4	5.3%	-0.1
CCN1C(=O)N(c2ccc(Cl)cc2)C(C)=CC1(C)C	1.5	0	0	6	-0.1%	-0.6
Cc1ccc(Cn2cc(C(=O)c3ccc(C)cc3)c(=O)c3ccc(C)nc32)cc1	.	.	7	.	1.5%	0.9
Cc1ccc(Cn2c(=O)c3c(ncn3C)n(C)c2=O)cc1	-0.8	0	-7	0	0.0%	-0.3
CCOc1cc(N2CCOCC2)c(OCC)cc1NC(=O)c1ccc2ncsc2c1	5.2	.	-17	-6	1.8%	-0.4
COc1ccc([C@H]2C[C@@H](O)[C@H](n3cc(COC(=O)c4ccccc4)nn3)CN2CC2CCCCC2)cc1	-11	-1	7	-4	23%	-0.2
Cc1oc2c(Cl)c(Cl)c(O)c(CN(C)C)c2c1C(=O)c1ccc(Cl)cc1	-1.9	-13	14	?	2.8%	1.2
COc1ccc(-n2c(-c3ccco3)n[nH]c2=S)cc1	-0.2	-3	-11	5	0.3%	0.3
C[C@H](NC(=O)Cc1cccc2ccccc12)C(=O)N1CCCN(C)CC1	-4.1	4	7	-5	0.3%	-0.6
C=CCc1cccc(CNc2nc3ccccc3n2CCC)c1O	-0.9	-2	14	-2	7.7%[38.3 µM]	0.4

Marked active in D2 agonist (from the list above):
Structure	D2 agonist	CtBP-E1A blk	TRPML1 blocker	Six1-Eya2 inh	PINK1 modulator
CN(C)CCOC(c1ccc(Cl)cc1)c1ccccn1 (centres undefined)	98*!	24&9	20&0	17&-2	2.0%&1.2%

High-throughput results (PubChem)
